VDR inh: vitamin D3 receptor (human) inhibition; VDR-SRC2-3 peptide fluorescence polarization, 2 h; Potency, µM, without a hit: max response, negative = inhibition, actives largely listed as inhibitors; hit rate 0.93% among 400,000; active means well fitted inhibition curve with a large enough effect; inconclusive means small, poorly fitted or top-dose-only effect, or another doubt; inactive means no such curve, though single readings can be large or run the other way; further: series mostly up to about 120 µM
Target sequence (P11473 whole entry, looked up): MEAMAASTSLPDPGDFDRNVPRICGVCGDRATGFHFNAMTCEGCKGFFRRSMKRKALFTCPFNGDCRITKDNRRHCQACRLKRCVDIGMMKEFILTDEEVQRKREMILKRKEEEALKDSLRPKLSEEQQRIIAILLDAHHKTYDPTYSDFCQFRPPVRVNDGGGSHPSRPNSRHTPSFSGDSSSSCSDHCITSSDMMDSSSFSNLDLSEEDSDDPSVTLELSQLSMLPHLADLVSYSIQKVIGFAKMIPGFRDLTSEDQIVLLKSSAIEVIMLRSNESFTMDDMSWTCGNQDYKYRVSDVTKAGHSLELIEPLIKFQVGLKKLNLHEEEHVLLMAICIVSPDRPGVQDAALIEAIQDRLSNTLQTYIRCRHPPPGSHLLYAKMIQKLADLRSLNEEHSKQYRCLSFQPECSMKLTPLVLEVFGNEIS
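Compounds are added to VDR with labelled SRC2-3 coactivator peptide and held 2 h at room temperature. Inhibition of the VDR–peptide interaction is then read as a change in fluorescence polarization.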
Starred values were filed as active, the others as inactive; ? = inconclusive; & = joins results of further samples; [ ] = dose if it differs, or a comment. On the % scale 0 is the no-effect control and ±100 the full control effect; potency means the concentration at half of the fitted maximal effect. Not all compounds are listed. The share of hits here may be higher or lower than overall.

VDR inh | Compound
45µM* | C[C@H]([C@H](C)N1CC(=O)NC(=O)C1)N1CC(=O)NC(=O)C1
6% | COc1ccc(N(CC(=O)NCc2ccccc2Cl)S(=O)(=O)c2c(C)n[nH]c2C)cc1
-9% | CC1CCN(C(=O)COC(=O)c2cc([N+](=O)[O-])ccc2N2CCOCC2)CC1
-6% | COc1ccc(CNc2ccc3c(c2)ncn3-c2ccccc2OC)cc1
-4% | Cc1cccc2nc(CNC(=O)C3CCC(=O)N(Cc4ccccc4F)C3)cn12 (centres undefined)
-1% | COCCn1c(=O)cnc2cnc(Oc3cccc(Cl)c3)nc21
4% | CCOC(=O)C1CCCN(Cc2c(Cl)cccc2Cl)C1 (centres undefined)
20% | Cc1ccsc1CN(C(=O)c1oc2ccccc2c1C)C1CCS(=O)(=O)C1 (centres undefined)

Remaining list, next part
VDR inh | Compound
18% | Nc1cc2c(cc1N)-c1ccccc1C2
10% | N#Cc1nc(-c2cccs2)oc1NCc1ccco1
3% | COC(=O)c1ccccc1NC(=O)COC(=O)c1cccnc1
3% | C/C=C/C(=O)Nc1ccc(N2CCN(c3ccc(C(F)(F)F)cn3)CC2)nc1
-16% | CCOc1ccc(C(CC(=O)O)NC(=O)C(Sc2ccccc2)c2ccccc2)cc1 (centres undefined)
25µM* | COC(=O)c1ccc(/C=N/NC(=S)NC(C)C)cc1
89µM* | COC(=O)N1C(=O)[C@](Cc2ccccc2)(c2ccccc2)N1C(=O)OC
3% | Cc1cccc(CC(=O)NCCc2sc3nc(-c4ccc(F)cc4)nn3c2C)c1

More records follow.
VDR inh | Compound
11% | O=C(NCc1ccc(Cl)cc1)c1noc2c1CCCCC2
-12%&-17% | Cc1cccc(C2=NN(c3ccc(Br)cc3)[C@@H](C(=O)N3CCOC3=O)[C@@H]2C)c1
6% | Cc1ccc(-c2nn(CC(=O)N(C)C)c(=O)c3ccccc23)cc1S(=O)(=O)N(C)C
-3% | O=C(NC1CCCCCCC1)c1cc(-c2ccccn2)nc2ccccc12
-19% | CCOc1cc(C(=O)Nc2ccc3oc(-c4ccc(F)cc4Cl)nc3c2)cc(OCC)c1OCC
5% | COC(=O)Cc1[nH]nc2c1C1(CCSCC1)C(C#N)=C(N)O2
-1% | CC(C(=O)NCC1CCCO1)n1cccc1C(=O)c1ccccc1 (centres undefined)
8% | COc1ccc(S(=O)(=O)N2CC(C)N(S(=O)(=O)c3ccc(OC)cc3)CC2C)cc1 (centres undefined)

The list continues:
VDR inh | Compound
-5%&10% | COC(=O)c1ccc(NC(=O)CCS(=O)(=O)c2ccc(Br)cc2)cc1
-12% | COc1cc(OC)cc(-c2cc3nc(C)c(CCC(=O)O)c(C)n3n2)c1
3% | COc1cc(Cl)c(C)cc1NC(=O)CCCn1c(=O)oc2ccccc21
15% | CCO/C(C)=N/n1c2nc3ccccc3nc2c2c(=O)n(Cc3ccccc3Cl)c(C)nc21
-9% | Cc1ccc(/C=C/S(=O)(=O)NCC(=O)OCC(=O)Nc2ccc(C(N)=O)cc2)cc1
-1% | Cc1nc(Cl)sc1C(=O)Nc1ccc(Cl)cc1
17% | CC1CCCN(C(=O)/C(=C/c2ccco2)NC(=O)c2ccccc2)C1 (centres undefined)
-19% | Cc1cc([N+](=O)[O-])ccc1NS(=O)(=O)c1ccccc1

Next section:
VDR inh | Compound
-11% | CCCCN1C(=O)/C(=C2/C=CC=CN2C)SC1=S
-2% | CCCCC(=O)Nc1ncc2c(n1)CC(C)(C)CC2=O
4% | COc1cc(OC)cc(C(=O)N2CCN(Cc3ccc4c(c3)OCO4)CC2)c1
-3% | Cc1nnc(SCc2ccccc2C#N)n1-c1ccccc1
15% | O=C(OCc1cc(=O)n2nc(C3CC3)sc2n1)c1ccc(F)cc1
-11% | Cc1nn2c(C(F)(F)F)cc(-c3ccc(OC(C)C)cc3)nc2c1C#N
5% | CCc1cc(=O)oc2cc(OCC(=O)N3CCC[C@H]3C(=O)O)ccc12
-13% | Cc1cccc2nc(CSc3nc4ccc([N+](=O)[O-])cc4[nH]3)cn12

Next part
VDR inh | Compound
-1% | CCN1C[C@@H]2[C@@H]3C(=O)N(Cc4ccccc4)C(=O)[C@@H]3[C@](C)(C1=O)N2C(=O)c1ccc(Cl)c(Cl)c1
0% | Cc1ccccc1N1C(=O)[C@@H]2Cc3ccccc3CN2C1=O
12% | CC(OC(=O)CNC(=O)c1ccc2c(c1)OCO2)C(=O)NCCC1=CCCCC1 (centres undefined)
8% | CCOc1ccc(NC(=O)Cn2c(CCC(=O)O)ccc2-c2ccc(Cl)cc2)cc1
2% | Cc1nc2cccc(C)n2c(=O)c1Cl
0% | COc1ccccc1CC1(C)NC(=O)N(CC(=O)N2CC(C)OC(C)C2)C1=O (centres undefined)
3% | CC1CCC(NC(=O)COc2ccc(C(=O)c3ccccc3)cc2)CC1 (centres undefined)
4% | O=C(O)P(=O)(O)O

Following part.
VDR inh | Compound
-8% | CCCn1c(N)c(C(=O)CSc2nnc(-c3c[nH]c4ccccc34)n2C2CC2)c(=O)[nH]c1=O
-6% | CN(CC(=O)Nc1nc2ccccc2s1)S(=O)(=O)c1ccc(Cl)cc1
15% | CCCC(/C=C/c1ccc(OC(C)=O)cc1)=C1/c2ccccc2C(=O)N1c1ccccc1
16% | O=c1c(N2CCc3ccccc3C2)csc2ccc(Cl)cc12
-9% | COc1ccc(/C=C(/NC(=O)c2ccc(C)cc2)C(=O)NCC2CCCO2)cc1 (centres undefined)
-5% | Cc1ccc(S(=O)(=O)NCCC(=O)NC(C)CCc2ccccc2)cc1 (centres undefined)
-24% | O=C(Nc1ccc(Cl)cc1Cl)c1csc(-c2cccnc2)n1
6% | CC(C)(C)c1ccc(C(=O)NC2CCN(Cc3ccccc3)CC2)cc1

More records.
VDR inh | Compound
-17% | O=C(NNC(=O)C1CC1)c1cc(Br)c(Br)s1
-5% | CC(C)CN(C(=O)c1ccco1)C1CCS(=O)(=O)C1 (centres undefined)
32%[activator] | CCOC(=O)CSc1ncc(-c2cccc(Cl)c2)cn1
2% | CC(c1ccco1)N(C(=O)c1ccccc1NS(=O)(=O)c1ccc(Cl)cc1)c1ccccn1 (centres undefined)
6% | C=CCOc1c(Br)cc(C2NC(=O)NC(C)=C2C(C)=O)cc1OCC (centres undefined)
0% | CCOc1ccccc1C1Nc2ccccc2-c2nnc(SCc3ccccc3)nc2O1 (centres undefined)
-3% | C=CCOC(=O)C1=C[C@@H](c2coc3ccccc3c2=O)C[C@@H](OCc2ccc(CO)cc2)O1
-12% | COCCN(C(=O)CCc1nnc(Cc2c[nH]c3ccccc23)o1)C(C)C

(further entries)
VDR inh | Compound
-6% | Cc1ccc(NCc2ccncc2)c(Br)c1
10% | Cn1cccc1C(=O)OCC(=O)Nc1ccc2c(c1)OCO2
-7% | COCc1cc(=O)n2[nH]c(C(C)(C)C)cc2n1
-1% | COC(=O)NCC1(C)CC(NC(=O)OC)CC(C)(C)C1 (centres undefined)
2% | CCn1c(-c2csc3c2CCCC3)n[nH]c1=S
-8% | COc1cccc(-c2nccc(NCc3cnc(C)cn3)n2)c1
-6% | COc1ccc2nc3sc(C(=O)Nc4cc(Cl)c(OC)cc4OC)cc3cc2c1
13% | CC(C)c1ccc(OCC(O)CN2CCN(c3ccc(F)cc3)CC2)cc1 (centres undefined)

(continued)
VDR inh | Compound
-7% | O=S(=O)(NCc1ccccc1)c1ccc(S(=O)(=O)N(Cc2ccccn2)Cc2ccco2)cc1
-17% | Cc1c(NC2=CC(=O)CC(C)(C)C2)ccc([N+](=O)[O-])c1C
-22% | Cc1cccc(C)c1OCc1cc(C(=O)N2CCN3CCCC3C2)no1 (centres undefined)
2% | Cc1ccc(Nc2nc(Cl)c(C=O)s2)cc1Cl
-3% | Cc1cc(C(=O)O)ccc1-c1ccc(CO)o1
-19% | O=C(O)c1cncc(C#CCC2CCCCC2)c1
2% | Cc1nc2ccc(NC(=O)c3sccc3C)cc2s1
19% | CCS(=O)(=O)N1CCCC(C(=O)NC2CCCCC2)C1 (centres undefined)

Further results
VDR inh | Compound
-3% | O=C(COc1ccccc1Cl)Nc1cccc(S(=O)(=O)N2CCCC2)c1
5% | Cc1ccc2c(c1)C(c1ccc(F)cc1)N(C(=O)c1cccc(C(F)(F)F)c1)CC(=O)N2 (centres undefined)
13% | CCO[C@@H]1OC(C(=O)NCc2nc3ccccc3[nH]2)=C[C@H](C2CC2)[C@H]1CCCO
-17% | Cc1cc(NS(=O)(=O)c2ccc(NC(=O)CSc3nc4ncc(Cl)cc4[nH]3)cc2)nc(C)n1
1%&1%&7% | CCCN(CCC)S(=O)(=O)c1ccc(C(=O)O)cc1
-5% | O=C(CN1C(=O)C2CC=CCC2C1=O)Nc1nc2ccccc2[nH]1 (centres undefined)
3% | COc1ccc(N2C(=O)CC(NCc3cccc(F)c3)C2=O)cc1 (centres undefined)
-1% | Cc1cc(C(=O)Nc2cccc(C)c2C)n(-c2ccccc2)n1

Remaining list, next part.
VDR inh | Compound
-12% | O=C(CO/N=C1\CCCc2nonc21)Nc1ccccc1Cl
5% | CCOC(Cn1c(SCC(=O)Nc2cc(C)on2)nc2ccccc2c1=O)OCC
0% | O=C(NCc1ccc(F)cc1)c1ccc(S(=O)(=O)N2CCCCC2)cc1
7% | CCOC(=O)c1c(NC(=O)COc2ccc(Cl)cc2Cl)sc2c1CCCCC2
-11% | O=S(=O)(Cc1ccccc1Cl)NCc1ccccc1
5% | Cc1ccc(Nc2nc(C)cc(C)n2)c(C(=O)O)c1
-9% | Clc1ccc(C2=Nn3c(nnc3-c3cccnc3)SC2)s1
12% | CC(C)NC(=O)C1CCC(Cn2c(=O)c3sccc3n(CC(=O)Nc3ccccc3)c2=O)CC1 (centres undefined)

Following part.
VDR inh | Compound
3% | Cc1nc(SCC(=O)Nc2ccnc3ccccc23)n[nH]1
-8% | CC(=O)N1CCN(C(=O)c2cc(-c3ccc(Cl)s3)nc3ccccc23)CC1
4% | COc1ccc(N2C(=O)CC(N3CCC(O)(c4ccc(Br)cc4)CC3)C2=O)cc1 (centres undefined)
-22% | COc1cc(NC(=O)Cn2cnc(C(=O)Nc3ccc(C)c(C)c3)n2)cc(OC)c1OC
-1% | c1ccc(CSc2nc3ncccc3[nH]2)cc1
16% | COc1cc(C2N(c3cc(C)on3)C(=O)C3CCCN32)cc(OC)c1OC (centres undefined)
-16% | COC(=O)C1=C(N)c2c(F)cccc2C1(C#N)c1ccc(F)cc1 (centres undefined)
-24% | Cc1ccc(C(=O)NC(=S)NNC(=O)COc2ccccc2C)cc1

(listing goes on)
VDR inh | Compound
-10%&-4% | CCOc1ccccc1NC(=O)CCn1nc(C)c(S(=O)(=O)N2CCCCC2)c1C
89µM* | NC(=O)Cn1c(=O)n(Cc2ccco2)c(=O)c2c3c(sc21)CCCCC3
7% | COc1ccc(-c2noc(-c3nnn(-c4cc(C)ccc4C)c3N)n2)cc1
3% | CCC(=O)OC1(C)C(=O)C=C2C=C(CCCNC(=O)OC(C)(C)C)OC=C2C1=O (centres undefined)
4% | O=C1C(=O)N(C2CCCC2)C(=O)N1Cc1c(F)cccc1Cl
? | O=C(/C=C/c1cccnc1)c1ccccc1O
-4% | COc1cccc(NC(C(=O)Nc2cccc(C(C)=O)c2)c2ccccc2)c1 (centres undefined)
-4% | O=C(Nc1ccccc1F)c1ccccc1-c1ccc(C(F)(F)F)cc1

An excerpt from above in order of number of heavy atoms, lowest first:
VDR inh | Compound
-7% | COCc1cc(=O)n2[nH]c(C(C)(C)C)cc2n1
-19% | O=C(O)c1cncc(C#CCC2CCCCC2)c1
25µM* | COC(=O)c1ccc(/C=N/NC(=S)NC(C)C)cc1
4% | CCOC(=O)C1CCCN(Cc2c(Cl)cccc2Cl)C1 (centres undefined)
16% | O=c1c(N2CCc3ccccc3C2)csc2ccc(Cl)cc12
-1% | Cc1cc(C(=O)Nc2cccc(C)c2C)n(-c2ccccc2)n1
-1% | CC(C(=O)NCC1CCCO1)n1cccc1C(=O)c1ccccc1 (centres undefined)
6% | C=CCOc1c(Br)cc(C2NC(=O)NC(C)=C2C(C)=O)cc1OCC (centres undefined)
89µM* | NC(=O)Cn1c(=O)n(Cc2ccco2)c(=O)c2c3c(sc21)CCCCC3
-8% | CC(=O)N1CCN(C(=O)c2cc(-c3ccc(Cl)s3)nc3ccccc23)CC1
4% | COc1cc(OC)cc(C(=O)N2CCN(Cc3ccc4c(c3)OCO4)CC2)c1
-6% | COc1ccc2nc3sc(C(=O)Nc4cc(Cl)c(OC)cc4OC)cc3cc2c1
6% | COc1ccc(N(CC(=O)NCc2ccccc2Cl)S(=O)(=O)c2c(C)n[nH]c2C)cc1
15% | CCCC(/C=C/c1ccc(OC(C)=O)cc1)=C1/c2ccccc2C(=O)N1c1ccccc1
-1% | CCN1C[C@@H]2[C@@H]3C(=O)N(Cc4ccccc4)C(=O)[C@@H]3[C@](C)(C1=O)N2C(=O)c1ccc(Cl)c(Cl)c1

(list continues)
VDR inh | Compound
-18% | COc1cccc(NC(=O)CNc2cc(S(=O)(=O)N3CCOCC3)ccc2N2CCCC2)c1
-11% | CCc1ccc(NC(=O)CN2C(=O)COc3ccc(S(=O)(=O)N4CCCC4)cc32)cc1
1% | Cc1cc(=O)n2c(n1)SCOC2
-23% | N/C(=N\OC(=O)c1ccc(F)cc1)c1ccccc1
-3% | O=C(Cn1c(=O)c2cccn2c2ccccc21)NCc1ccccc1F
-16% | O=C(c1cc(-c2ccc(Cl)c(Cl)c2)on1)N1CCN(c2ccccc2)CC1
? | O=C(O)CCN1C(=O)/C(=C\c2cccc(OCc3ccccc3)c2)SC1=S
-7% | CCc1ccc2c(COC(=O)c3n[nH]c4ccccc34)cc(=O)oc2c1
-1% | N#Cc1ccc(CN2CCC3(CC2)CCN(C(=O)c2cccc(F)c2)CC3)cc1
-3% | CCCC(=O)Nc1nnc(S(=O)(=O)N(C)c2ccccc2)s1
-9% | COC(=O)NNC(=O)c1ccccc1C

Compound activity as filed in PubChem.
